VDR inhibitor = blocks the human vitamin D receptor. P11473. VDR-SRC2-3 peptide fluorescence polarization, 2 h. Potency, µM, for the others: max response, negative = inhibition, usual class: inhibitors. 400,000 tested, 0.93% active. AID 504847; active means well fitted inhibition curve with a large enough effect; inconclusive means small, poorly fitted or top-dose-only effect, or another doubt; inactive means no such curve, though single readings can be large or run the other way; further: series mostly up to about 120 µM
Target sequence (P11473 whole entry, looked up): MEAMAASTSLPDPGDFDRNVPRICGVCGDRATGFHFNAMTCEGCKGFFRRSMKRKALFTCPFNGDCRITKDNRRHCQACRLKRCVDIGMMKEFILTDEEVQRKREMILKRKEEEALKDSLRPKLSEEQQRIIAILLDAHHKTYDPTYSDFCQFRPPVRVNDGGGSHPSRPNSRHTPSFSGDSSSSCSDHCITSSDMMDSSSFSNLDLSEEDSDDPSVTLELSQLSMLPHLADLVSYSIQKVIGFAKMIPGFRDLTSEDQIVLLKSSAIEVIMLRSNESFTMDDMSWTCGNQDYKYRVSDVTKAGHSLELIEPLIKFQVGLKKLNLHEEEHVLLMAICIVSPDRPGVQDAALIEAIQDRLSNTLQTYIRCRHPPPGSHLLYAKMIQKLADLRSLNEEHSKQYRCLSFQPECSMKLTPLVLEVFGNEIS
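FP read-out; VDR + SRC2-3 coactivator peptide; 23 nl compound by pintool; 2 h RT incubation; reagents held at 4 deg C, protected from light.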
An asterisk follows results filed as active; ? = inconclusive; [ ] = remark or other dose. On the % scale 0 is the no-effect control and ±100 the full control effect; potency means the concentration at half of the fitted maximal effect. An excerpt; count on the stated rates, not on these rows.

VDR inhibitor | canonical_smiles
13% | N#CC(C#N)=C1C(=O)N(CCN2CCCCC2)c2ccccc21
-19% | O=C(OCC1OC(n2cc(Br)c(=O)[nH]c2=O)C(Br)C1O)c1ccccc1 (stereo not drawn)
-11% | Cc1ccc(OCC(=O)c2cc(C)n(-c3cc(C)on3)c2C)c([N+](=O)[O-])n1
7% | CCN1/C(=C/c2ccc3cc(C)ccc3[n+]2CC)Sc2cc(C)c(C)cc21
-9% | CCCOc1cccc(C2c3c(oc4cc(C)c(C)cc4c3=O)C(=O)N2CCCN2CCOCC2)c1 (stereo not drawn)
-2% | CCOc1ccc(NC(=O)CN2CCN(C(=O)c3ccco3)CC2)cc1S(=O)(=O)N1CCCC1
-12% | CCN(Cc1ccccc1)C(c1ccncc1)c1nnnn1C(C)(C)C (stereo not drawn)
9% | COc1cc(OC)c(N(C)C(=O)c2c(C)oc3ncn(CC(C)C)c(=O)c23)cc1Cl

Going on with the list.
VDR inhibitor | canonical_smiles
23% | N/C(=N\OC(=O)CCCN1C(=O)c2ccccc2C1=O)c1ccc(Cl)cc1
-2% | Cc1cccc(N2CC3=C(C2=O)C(c2ccccc2)NC(=O)N3C)c1 (stereo not drawn)
-4% | NC(=O)C1CC(=O)N(Cc2ccc3c(c2)OCO3)C(=Nc2ccccc2)S1 (stereo not drawn)
-8% | Cc1ccc([N+](=O)[O-])cc1NC(=O)CN1CCC(C)CC1
-5% | CC1(C)CC(=O)C2=C(C1)OC(N)=C(C#N)C21C(=O)N(CN2CCOCC2)c2ccccc21 (stereo not drawn)
-9% | Cc1ccc(C)c(Cn2c(=O)n(CCCC(=O)NCc3ccc4c(c3)OCO4)c(=O)c3sccc32)c1
4% | CCCCNC(=O)C1CCN(c2nc3ccc(C)cc3[nH]2)CC1
-8% | CCc1ccccc1-n1c(SCC(=O)NC)nnc1-c1ccco1

Carrying on:
VDR inhibitor | canonical_smiles
-6% | Cn1nnc(NC(=S)NC(=O)c2cccc3ccccc23)n1
-5% | Cc1ccc(C(O)(C(=O)NN(C(=O)c2ccccc2)c2ccccc2)c2ccc(C)cc2)cc1
12% | COc1ccc(-c2ccc(=O)n(CC(=O)NCC3COCCO3)n2)cc1 (stereo not drawn)
-6% | CCOC(=O)c1[nH]c(C)c(C(=O)Nc2ccc(Cl)cc2)c1C
? | Cc1cccc(C)c1NC(=O)CN(C)C(=O)c1cc(S(=O)(=O)N2CCOCC2)ccc1N1CCCC1
2% | CC1CCCN(Cc2c(O)ccc3c(=O)c(-c4ccccc4Cl)c(C(F)(F)F)oc23)C1 (stereo not drawn)
-11% | O=C(CCCOc1ccc(Cl)cc1Cl)N/N=C/c1ccco1
-11% | Cc1cc2c(cc1S(=O)(=O)Nc1cccc(F)c1)n(C)c(=O)c(=O)n2C

(more compounds)
VDR inhibitor | canonical_smiles
-8% | c1ccc2nc3ccccc3nc2c1
-15% | CC1=C(C(=O)Nc2ccccc2)C(c2ccc(C)cc2)n2nc(SCc3ccccc3C)nc2N1 (stereo not drawn)
7% | Cn1nccc1C(=O)NCc1ccc2c(c1)CCN2C(=O)c1ccc(F)cc1
-23% | COc1cc2nc(SCC(=O)Nc3ccc(F)cc3)n3nc(CCn4c(C)nc5ccccc54)nc3c2cc1OC
-25% | CCOC(=O)C1(C)/C(=N/Nc2ccc(Cl)cc2)C(=O)C(=O)N1c1ccccc1 (stereo not drawn)
-20% | COc1ccccc1C1CC(c2cccs2)=Nc2ccccc2S1 (stereo not drawn)
-2% | COc1ccccc1-c1nn(Cc2ccccc2)cc1C(=O)N1CCN(c2ncccn2)CC1
-6% | CCN(CC)CCNC(=O)c1ccc(NC(=O)Cc2ccccc2F)cc1

Next section:
VDR inhibitor | canonical_smiles
-1% | Cc1ccc(NS(=O)(=O)c2csc(C(N)=O)c2)cc1C
-13% | CC1CCC(Nc2nc3c(-c4cccc(C(F)(F)F)c4)nnn3c3ccccc23)CC1 (stereo not drawn)
-1% | CCOC(=O)N1CCC(NC(=O)c2cn(-c3ccc(OC)cc3)c(=O)c3ccccc23)CC1
-19% | Cc1cccc(C)c1NS(=O)(=O)c1ccc(F)cc1
7% | O=C(/C=C/c1ccccc1)NC(=S)Nc1ccc(N2CCOCC2)c(Cl)c1
12% | COC1OC(COCc2ccccc2)C(N)C(OCc2ccccc2)C1OCc1ccccc1 (stereo not drawn)
5% | CN(C(=O)c1c2c(nc3ccccc13)C(=O)N(C1CCCCC1)C2)c1ccc(F)cc1
-3% | COc1cccc(Cn2c(NCc3ccco3)nc3c2c(=O)n(C)c(=O)n3C)c1

(listing goes on)
VDR inhibitor | canonical_smiles
-12% | COc1nc(NCCO)nc(Nc2ccc([N+](=O)[O-])cc2)n1
-4% | COc1ccccc1-c1nn2c(=O)cc(CN3CCN(S(=O)(=O)c4ccc(C)cc4)CC3)nc2s1
8% | COc1ccc(-c2ccc(NS(=O)(=O)c3cccc(Cl)c3)cc2)nn1
3% | COc1cc(-c2nc(CN3CCN(C(=O)c4ccco4)CC3)c(C)o2)ccc1F
26% | O=C(N/N=C/c1cccc(Br)c1)c1ccc(Br)cc1
10% | COc1ccc(CCNC(=O)CSc2nnnn2-c2ccccc2)cc1
-18% | Cc1ccc(Cn2nnnc2CN2CCC(O)(c3cccnc3)CC2)cc1
-5% | COc1ccc(CN2CCC(n3nccc3NC(=O)C3CC3)CC2)c(Cl)c1OC

(continued)
VDR inhibitor | canonical_smiles
-6% | S=c1[nH]ccn1-c1cccc(Cl)c1
5% | CN(CC(=O)Nc1ccc(Cl)c(C(F)(F)F)c1)C(=O)Cc1cccs1
-10% | Cc1ccc(Nc2nc3c(S(=O)(=O)c4ccccc4)nnn3c3ccc(Cl)cc23)c(C)c1
6% | Cc1ccc(Cl)cc1NC(=O)c1oc2ccc(S(=O)(=O)N3CCCCCC3)cc2c1C
19% | CCOc1ccc(NC(=O)CNC(=O)c2ccc(OC)c(OC)c2)cc1
-3% | CCSc1ccc(-c2ccc(C)cc2)nn1
-10% | CSc1ncc(C(=O)Nc2ccc(Cl)cc2)c(C)n1
-25% | CCCNC(=O)c1ccccc1NC(=O)CN(c1ccccc1OCC)S(C)(=O)=O

More records.
VDR inhibitor | canonical_smiles
12% | COc1cccc(-c2nc(CC(=O)O)cs2)c1OC
2% | Cc1ccc(-c2cn3nc(N4CCC(C(=O)Nc5ccccc5C)CC4)sc3n2)cc1
3% | Cc1ccc(C(=O)N2CCN(S(=O)(=O)c3ccccc3[N+](=O)[O-])C2)cc1
-7% | COC(=O)[C@@]1(Cc2ccc(F)cc2)[C@H]2c3cc(C(=O)N(C)C)n(Cc4ccccn4)c3C[C@H]2CN1C(=O)c1ccccc1
-15% | CC(C(=O)NC(C)(C)C)N(Cc1cccs1)C(=O)CCN1CCc2ccccc21 (stereo not drawn)
-11% | CC(C)c1ccc(NCCC(=O)c2ccc(Br)cc2)cc1
-17% | O=C(Nc1ccc(C(=O)NCCCN2CCCCC2)cc1)C1=CSCCO1
12% | COc1ccc(C(=O)c2oc3ccccc3c2N)cc1

(cont.)
VDR inhibitor | canonical_smiles
8% | COc1ccccc1NC(=O)CCC(=O)N/N=C(/C)c1ccc(C)cc1
5% | Nc1cc(N2CCCCC2)c(Cl)cc1[N+](=O)[O-]
2% | COC(=O)N/N=C/c1cc(C)n(-c2ccccc2)c1C
-10% | N#C/C(=C\c1ccccc1)c1ccccn1
-6% | Nc1nnc(CCN2C(=O)CSC2=O)s1
-3% | S=C1NC2=C(CCCC2=C2SCCCS2)C(c2ccccc2)N1 (stereo not drawn)
-11% | CCCC(c1nnnn1Cc1ccc(OC)cc1)N1CCN(C(=O)c2ccco2)CC1 (stereo not drawn)
-2% | Cn1c(=O)c(C(=O)NCc2ccc(F)cc2)c(O)c2ccccc21

Sorted by the number under VDR inhibitor (rising): some entries from above.
SMILES,VDR inhibitor
N#C/C(=C\c1ccccc1)c1ccccn1,-10%
Nc1nnc(CCN2C(=O)CSC2=O)s1,-6%
Cn1c(=O)c(C(=O)NCc2ccc(F)cc2)c(O)c2ccccc21,-2%
COC(=O)N/N=C/c1cc(C)n(-c2ccccc2)c1C,2%
Nc1cc(N2CCCCC2)c(Cl)cc1[N+](=O)[O-],5%
COc1ccccc1NC(=O)CCC(=O)N/N=C(/C)c1ccc(C)cc1,8%

Other structures
VDR inhibitor | canonical_smiles
-8% | O=C(NCc1nc2ccccc2[nH]1)C1=C[C@@H](C2CCCCC2)C[C@@H](OCCCCO)O1
-1% | NC(=O)CC(NC(=O)Cc1ccc(Br)cc1)c1ccc(N2CCC(N3CCCC3)CC2)c([N+](=O)[O-])c1 (stereo not drawn)
-2% | COc1ccc(-c2nc3cnc(OC)nc3n(C[C@H]3CCCO3)c2=O)cc1
1% | COc1ccc(/C=N/N2CCN(c3ccncc3S(=O)(=O)N3CCCCC3)CC2)cc1
-8% | O=C(O)[C@@H]1CCCC[C@@H]1C(=O)N1CCc2ccccc2C1CN1C(=O)c2ccccc2C1=O (stereo partly drawn)
12% | N#Cc1c(-c2cccs2)cc(C2CC2)nc1SCC(N)=O
1% | Cc1nc(Nc2ccncc2)c2oc3ccccc3c2n1
-9% | COc1ccccc1CCn1cc(C#N)c(=O)[nH]c1=O

Next section
VDR inhibitor | canonical_smiles
9% | O=C(c1ccc(S(=O)(=O)N2CCOCC2)cc1)N(c1ccccn1)C1CCCCC1
2% | COc1cccc(-n2c(SCC(N)=O)nc3c(oc4ccccc43)c2=O)c1
-5% | CSc1ccc(C#N)cc1NC(=O)c1ccc(Cl)nc1
5% | CC1CCc2c(sc(NC(=O)c3cc(-c4ccc(F)cc4)on3)c2C(N)=O)C1 (stereo not drawn)
3% | CSc1ccc(-c2nc3ncccn3c2Nc2ccc(C)c(C)c2)cc1
-5% | O=C(O)CCC1(c2ccccc2)NC(=O)NC1=O (stereo not drawn)
16% | COCCn1nnnc1C(c1ccc(C(F)(F)F)cc1)N1CCOCC1 (stereo not drawn)
-10% | Cc1c(Cl)c([N+](=O)[O-])nn1CCCC(=O)Nc1cc(Oc2ccccc2)cc([N+](=O)[O-])c1

4 of these compounds in another layout:
> COc1cccc(-n2c(SCC(N)=O)nc3c(oc4ccccc43)c2=O)c1
  VDR inhibitor: 2%

> O=C(O)CCC1(c2ccccc2)NC(=O)NC1=O (stereo not drawn)
  VDR inhibitor: -5%

> COCCn1nnnc1C(c1ccc(C(F)(F)F)cc1)N1CCOCC1 (stereo not drawn)
  VDR inhibitor: 16%

> CC1CCc2c(sc(NC(=O)c3cc(-c4ccc(F)cc4)on3)c2C(N)=O)C1 (stereo not drawn)
  VDR inhibitor: 5%

Following part.
VDR inhibitor | canonical_smiles
-2% | COc1ccccc1CNS(=O)(=O)CCNCCc1ccccc1
-9% | Cc1cc(Br)c(NC(=O)COC(=O)CSc2nnc(-c3ccc(Cl)cc3)o2)c(Br)c1
1.3µM* | O=C1C(=O)c2ncccc2-c2cccnc21
? | COC(=O)c1cccc(-n2sc3ccccc3c2=O)c1
11% | COc1ccc2cc(C(=O)Nc3ccccc3)sc(=O)c2c1OC
-23% | O=C(CCc1nc2ccccc2c(=O)[nH]1)N1CCN(C/C=C/c2ccccc2)CC1
16% | O=C(NCC1CCCO1)c1csc2c1CCCC2 (stereo not drawn)
-8% | O=C1Cc2cc(S(=O)(=O)Nc3cccc([N+](=O)[O-])c3)cc3c2N1CCC3

The listing continues:
VDR inhibitor | canonical_smiles
-11% | COc1ccc([N+](=O)[O-])cc1NC(=O)CCCOc1ccccc1
-8% | O=C(CN(CC1CCCO1)C(=O)CNS(=O)(=O)c1ccc(F)cc1)NCc1ccccc1 (stereo not drawn)
79µM* | CC(OC(=O)CSc1ccc([N+](=O)[O-])cc1)C(=O)NCc1ccccc1 (stereo not drawn)
7% | CC(C)c1ccccc1OCC(=O)Nc1ccccc1C(=O)N1CCOCC1
-10% | Cc1ccc(NC(=O)c2ccc3ccccc3n2)nc1
-4% | COC(=O)c1ccccc1C(=O)N1CCOCCN(C(=O)c2ccccc2C(=O)OC)CCOCC1
-10% | Cc1cc(OCC(=O)NCCN2CCOCC2)cc(C)c1Cl
15% | Cc1[nH]c(=O)[nH]c(=O)c1S(=O)(=O)Nc1cccc(C(F)(F)F)c1

Next entries follow.
VDR inhibitor | canonical_smiles
5% | COCc1cc(=O)[nH]c(SCC(=O)Nc2ccccc2)n1
-6% | COc1ccc(C)cc1NC(=O)CSc1nc(SC)ns1
31%[activator] | COc1ccc(CC(=O)c2ccc(OC)c(OC)c2)cc1
-9% | Cc1ccc(OCC(=O)c2cc(C)n(C3CC3)c2C)c([N+](=O)[O-])n1
13% | CCOc1ccccc1NC(=O)c1ccccc1NC(=O)c1ccco1
-1% | COc1cccc(-n2ccnc2SCC(=O)Nc2ccc(Cl)c(Cl)c2)c1
8% | COc1cccc(NC(=O)Cn2c(=O)n(-c3ccccc3)c(=O)c3c2c2cc(OC)ccc2n3C)c1
-6% | CC(C)c1ccc(NC(=O)CSc2nc3ncccc3[nH]2)cc1

Further records follow.
VDR inhibitor | canonical_smiles
14% | CCc1ccc2oc(C(=O)Nc3ccccc3C(=O)OC)cc(=O)c2c1
11% | Cc1cc(C)cc(OCC(=O)NCC(c2ccc(Cl)cc2)N2CCCCC2)c1 (stereo not drawn)
2% | Cc1ccccc1OCCSc1nnc(-c2cccs2)o1
-6% | Cc1cc(C)cc(N=c2c([N+](=O)[O-])nn(-c3ccc4c(c3)OCCO4)n2O)c1
-8% | COc1ccc(/C=C/C(=O)OCc2cc(=O)n3c(n2)sc2ccccc23)cc1
-7% | O=C(c1cc(=O)[nH]c2ccccc12)N1CCN(S(=O)(=O)c2ccc3ccccc3c2)CC1
13% | Cn1c(Cc2ccccc2)nnc1SCc1ccc(C(=O)O)cc1
-8% | CCOc1cccc(OCCOc2ccccc2[N+](=O)[O-])c1
-13% | O=C(COC(=O)c1ccccc1Cl)NCc1ccco1

Screening results from PubChem BioAssay.
